A1 inh – inhibitors of the anti-apoptotic protein A1, read as caspase activation; MEF A1-2A-BIM cells, Caspase-Glo 3/7 luminescence, 3 h; percent of clofoctol response, vehicle zero; caspase activation, % (test concentration not listed); 0.066% of 330,000 active;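 active = over half of replicate activation scores above 10%, or exactly half above 10 with the replicate mean above 10; inconclusive = replicate mean below 10 yet half the replicates above 10; inactive = over half of replicates below 10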;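 note: wells of about 30 µL received 50 nL stock; many hits fall short of the cut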
LANA-H2B inh – blocks KSHV LANA binding to histone H2A/H2B | cell-free LANA-H2A/H2B peptide, fluorescence polarization | inhibition, % (no concentration beside the values) | 0.6% of 320,000 active; in the data active = inhibition mostly above about 10%, no sharp cut-off; inactive = mostly below about 6.7%;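 note: stock transfer was 7.5 nL into about 10 µL; 0% = median of vehicle wells and 100% = median of positive control wells; one replicate is shown; the record names a cut of 25% in any replicate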
Vif TR-FRET – HIV-1 Vif–A3G interaction blockers – biochemical, TR-FRET, GST-Vif 1-94, biotin-A3G peptide, dose response retest, primary screen (AID 1117319); TR-FRET GST-Vif / biotin-A3G peptide binding; higher % means a stronger effect; test concentration not given here; strong numbers were not always called active; inhibition, %; hits with a dose series show IC50 in µM; 0.57% of 260,000 active;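 active = above the screen mean plus three standard deviations and confirmed in dose response; inconclusive = results disagree or hit not tested in dose response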;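 note: Vif residues 1-94 fused to GST binding biotinylated APOBEC3G peptide 110-148; 0% = full assay without inhibitor and 100% = GST in place of GST-Vif; retest series ran down from 100 µM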
UCH37 inh – blocks the human deubiquitinase UCH37 | Q9Y5K5 | purified proteasome/UCH37, Ub-AMC cleavage fluorescence | inhibition, % (concentration not given with the values) | 0.33% of 330,000 active | AID 588478;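 active = mean of two replicates above 20%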;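 note: 0% = compound-free wells with enzyme and 100% = wells lacking proteasome; stock transfer was 100 nL into about 20 µL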
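assay system = human UCH37 enzyme supplied as purified proteasome complex | amount = proteasome at 0.15 nM in the dispensed enzyme solution | schedule = 30 min compound-proteasome preincubation then 25 min substrate reaction, room temperature | measured by = fluorescence, ex 355 nm, em 460 nm | benchmarks = no-proteasome wells (full inhibition) and compound-free wells (no inhibition)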
HNF4A DNA FP – change in binding of human HNF4 alpha to DNA. HNF4a-FITC DNA binding, fluorescence polarization, 1 h. P41235. activity change, % at 10 µM. 0.3% of 360,000 active; in the data active = activity change above about 30%, passing the limit was not always enough;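 note: controls were the assay level and a saturating level of protein; the project sought stronger binding though the title names inhibitors; some compounds called inactive have numbers as strong as hits; positive values seem to mean higher polarization but the record does not say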
Target sequence (P41235 whole entry, looked up): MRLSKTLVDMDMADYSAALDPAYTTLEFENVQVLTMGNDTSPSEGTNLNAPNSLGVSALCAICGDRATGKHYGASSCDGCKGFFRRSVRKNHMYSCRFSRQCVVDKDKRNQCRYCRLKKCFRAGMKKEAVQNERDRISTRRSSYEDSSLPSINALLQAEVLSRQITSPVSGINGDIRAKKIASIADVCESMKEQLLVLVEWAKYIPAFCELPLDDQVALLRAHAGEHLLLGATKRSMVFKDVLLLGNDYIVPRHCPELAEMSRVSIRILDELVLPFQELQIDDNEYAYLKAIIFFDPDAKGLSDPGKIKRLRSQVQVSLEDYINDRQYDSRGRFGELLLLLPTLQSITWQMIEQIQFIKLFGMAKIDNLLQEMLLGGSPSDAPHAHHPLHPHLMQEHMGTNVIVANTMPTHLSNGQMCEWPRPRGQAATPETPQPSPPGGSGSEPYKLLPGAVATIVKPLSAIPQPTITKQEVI
E coli growth – E. coli growth inhibition. Escherichia coli growth, OD600, 23 h; active compounds read low. 0.21% of 330,000 active. OD600 absorbance (no concentration beside the values). AID 1053175;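 active = OD600 absorbance below the run mean of sample wells minus 3.6 SD, in any replicate, cut at about 0.56 in these data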;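 note: stock transfer was 300 nL into about 60 µL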
Beta2AR agonist – human beta-2 adrenergic receptor agonism by FAP; P07550; Am2.2-beta2AR cells, FAP receptor internalization, flow cytometry; reference of the scale not given here; response, % (test concentration not listed); 0.43% of 340,000 active;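 active = response above a set limit, near 3 SD of response in nonfluorescent compounds, cut at about 42% in these data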;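 note: stock transfer was 100 nL into about 11 µL; a reference agonist was the positive control; negative values mostly stem from fluorescent compounds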
Target sequence (P07550 whole entry, looked up): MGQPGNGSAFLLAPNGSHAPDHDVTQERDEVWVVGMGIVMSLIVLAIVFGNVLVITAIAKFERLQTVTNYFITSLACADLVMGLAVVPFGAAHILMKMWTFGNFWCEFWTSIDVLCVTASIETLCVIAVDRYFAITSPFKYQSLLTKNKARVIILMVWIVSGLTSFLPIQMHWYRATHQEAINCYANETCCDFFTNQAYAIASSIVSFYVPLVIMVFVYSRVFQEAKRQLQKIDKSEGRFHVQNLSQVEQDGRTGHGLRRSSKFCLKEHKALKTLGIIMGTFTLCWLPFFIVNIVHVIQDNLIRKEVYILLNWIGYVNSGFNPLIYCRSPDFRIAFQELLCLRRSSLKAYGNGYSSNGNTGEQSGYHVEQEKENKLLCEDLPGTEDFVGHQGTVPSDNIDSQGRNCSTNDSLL
An asterisk follows results filed as active; ? = inconclusive; . = not tested or not shown; & = joins results of further samples.

SMILES | A1 inh | LANA-H2B inh | Vif TR-FRET | UCH37 inh | HNF4A DNA FP | E coli growth | Beta2AR agonist
COc1ccc(OCC(O)CN(C2CCCCC2)C2CCCCC2)cc1 (stereo unspecified) | -0.3 | -0.4 | 4% | 1.1 | 1.6 | 0.66 | 3
COc1ccc(OC)c(NC(=O)CC2C(=O)NCCN2C(=O)c2ccccc2)c1 (stereo unspecified) | -1.1 | -6.7 | . | 0.2 | -2.8 | 0.69 | -1
O=C(COC(=O)c1ccccc1OCc1ccc(F)cc1)NCC1CCCO1 (stereo unspecified) | 0.5 | 2.4 | 24% | 2.3 | -2.2 | 0.7 | 2
COc1ccccc1-c1noc(CCC(=O)N2CCN(c3cc(C)ccc3C)CC2)n1 | . | . | . | 2.1 | -0.2 | 0.65 | 17
COc1cc(C(c2nnnn2C(C)(C)C)N2CCN(c3nc4ccccc4s3)CC2)ccc1O (stereo unspecified) | 0.0 | -0.7 | -6%&-7% | 1.7 | 0.6 | 0.75 | -1
Cc1ccc(-c2noc(CSc3nnc(CCc4ccccc4)n3-c3ccccc3)n2)cc1 | 3.1 | -0.7 | 0%&6% | 0.7 | 1.4 | 0.74 | -9
COc1ccc(Br)cc1-c1noc(-c2ccncc2)n1 | -1.0 | -1.7 | -4% | -1.3 | 1.4 | 0.78 | -11
COC(=O)c1sc(NC(=O)c2ccco2)nc1C | -9.6 | 3.0 | 1% | 2.7 | -1.4 | 0.74 | -14
Cc1ccc(Nc2nnc(C)c(=O)[nH]2)cc1 | -0.4 | -0.6 | 5% | 2.0 | 0.0 | 0.69 | 0
CCOC(=O)c1cccc(NC(=O)c2c(N)n(C)c(=O)[nH]c2=O)c1 | -1.6 | 8.0 | . | 0.9 | . | 0.72 | .
O=C(Nc1cc(Cl)ccc1-n1cncn1)c1cncc(Br)c1 | 2.5 | -4.4 | -26% | 5.9 | 0.8 | 0.69 | 3
C=CCc1cccc2cc(C(=O)Nc3ccc(F)cc3)c(=O)oc12 | -2.5 | -0.4 | -1% | 0.4 | 0.9 | 0.67 | 9
O=C(CCC(=O)c1cccs1)OCC(=O)c1ccc(F)cc1 | 0.3 | 1.9 | -8% | 1.0 | 3.5 | 0.66 | -1
CC(O)CNc1nc2ccccc2n1CC(=O)NCCc1ccc(Cl)cc1 (stereo unspecified) | 0.8 | -5.2 | 14% | 0.5 | -0.8 | 0.71 | -4
CCc1ccc(C(=O)NC(CCSC)C(=O)OC)cc1 (stereo unspecified) | -0.3 | 0.1 | . | 1.1 | -3.7 | 0.71 | 6
Cc1cccc(C)c1OCC(=O)Nc1nnc(C2CCCO2)s1 (stereo unspecified) | -0.1 | -3.4 | -7% | 2.0 | -2.3 | 0.67 | 2
Cc1nc2ccccc2n1S(=O)(=O)c1ccc(Br)cc1 | 0.2 | -1.9 | 0% | 2.7 | 5.4 | 0.64 | -5
Cc1ccc(/C=N/NC(=O)C2=NNC(c3ccccc3)(c3ccccc3)C2)c(O)c1 | -0.9 | -0.7 | 24% | . | 3.6 | . | 3
Cc1nn(-c2ccccc2)c(N2CCCC2)c1/C=N/NC(=S)Nc1ccccc1F | -0.4 | -1.8 | 4% | . | -1.2 | . | 3
CCOc1ccccc1NC(=O)c1cccc2ccccc12 | 0.6 | 2.7 | 1% | 0.2 | -3.1 | 0.65 | -1
CCOc1cc2c3c(c1)C1(C(=O)N3C(C)(C)CC2C)C(C#N)=C(N)N2C(=C1C#N)Nc1ccccc12 (stereo unspecified) | -0.1 | -1.2 | -3% | -7.9 | 0.5 | 0.72 | 25
COc1cc(NC(=O)CN2CCN(S(=O)(=O)c3ccc(C(C)C)cc3)CC2)cc(OC)c1 | 0.2 | -0.8 | 0% | 3.1 | -1.9 | 0.76 | -5
CC1=CC(C)C(CN(CCC[N+](C)(C)C)C(=O)Nc2ccccc2)C(C)C1 (stereo unspecified) | -1.2 | 6.3 | 6% | -0.4 | -2.2 | 0.69 | -6
Cc1ccccc1N(C(=O)CNC(=O)c1ccco1)C(C(=O)NC1CCCCC1)c1cccnc1 (stereo unspecified) | 0.5 | 1.5 | . | 5.0 | -2.4 | 0.66 | 0
CC1=C(C)CC(C(=O)NC(C)CCc2ccccc2)C(C(=O)O)C1 (stereo unspecified) | 0.2 | 2.3 | . | 3.6 | 0.4 | 0.69 | 1
CSc1ncccc1C(=O)OCC(=O)NC1CCCC1 | 0.5 | -0.8 | -3% | 1.5 | 1.9 | 0.66 | -3
NC(=O)c1ccc(NC(=O)COC(=O)c2ccc3c(c2)OCCO3)cc1 | 1.1 | -0.8 | 24% | 3.2 | -3.1 | 0.75 | -2
Nc1nc(NC(=O)c2cccnc2)nn1-c1ccccc1 | 0.3 | -3.5 | -1% | 0.5 | -0.4 | 0.72 | -6
COc1cc(/C=N\NC(=O)C2C(=O)NCC2c2ccccc2)cc(OC)c1O (stereo unspecified) | 2.3 | -4.6 | 7% | . | 3.1 | . | 5
COc1ccc(-n2c(SCC(=O)NCc3ccco3)nc3c([nH]c4ccccc43)c2=O)cc1 | 0.1 | -0.6 | 0% | 3.1 | -4.4 | 0.74 | 7
COC(=O)c1ccc(CNC(=O)CSC2=NCCS2)cc1 | 2.0 | 4.5 | -8% | 2.3 | -1.2 | 0.7 | -1
N#CC1=C2N=C(N)c3ccccc3N2C2=C(C(=O)CCC2)C1c1ccccc1F (stereo unspecified) | -0.1 | 3.4 | 1% | 4.2 | -49 | 0.68 | 10
COc1cc(/C=C(\C#N)c2nc3c(s2)CCCC3)ccc1O | -0.3 | -12 | 23% | . | . | . | .
CCCC(=O)Nc1ccc(C(N)=O)cc1 | 1.0 | -3.1 | -1% | -1.3 | -1.6 | 0.69 | -1
CC(C)C[C@@H](CN1C(=O)C(=O)NC[C@@H]1CC(C)C)NC(=O)Cc1ccccc1 | 1.0 | -1.9 | . | 3.0 | -11 | . | -8
Cc1ccc2c(CC(=O)Nc3sccc3C(N)=O)coc2c1 | -1.3 | 1.8 | 4% | 1.3 | -0.5 | 0.7 | 3
CCOC(=O)c1csc(NC(=O)c2cc(-c3ccccn3)nc3ccccc23)n1 | -1.2 | 3.5 | . | 2.4 | -1.6 | 0.67 | 13
CCOC(=O)C(Cc1ccc(O)cc1)NC(=O)CNC(=O)C(CC(C)C)NC(=O)OC(C)(C)C (stereo unspecified) | 0.4 | 3.9 | 7% | 0.6 | 2.7 | 0.71 | 5
CCCCN(CCCC)C(=O)/C=C/c1cccc([N+](=O)[O-])c1 | 0.3 | -2.7 | 0% | 4.3 | -3.0 | 0.72 | -12
Cc1ccc(S(=O)(=O)N(CC(=O)NCc2ccc(F)cc2)C(=O)N2CCN(C)CC2)cc1 | -0.9 | 5.9 | -7% | 3.6 | -1.0 | 0.69 | -4
Cc1nc(Cl)cc(N/N=C/c2ccc(O)cc2O)n1 | -8.0 | -0.4 | 12% | . | 1.5 | . | 6
CCOC(=O)C1(Cc2cccc(OC)c2)CCN(Cc2ccccc2)CC1 | -1.8 | 0.3 | -7% | 1.7 | 1.1 | 0.68 | -2
CC(C)(C)c1ccc(C(=O)NCC(=O)N2CCCCCC2)cc1 | 0.0 | -2.3 | -11% | 2.6 | 3.6 | 0.67 | 0
N#Cc1c(N)n(CCNC(=O)c2ccccc2)c2nc3ccccc3nc12 | 0.1 | 1.0 | -7% | -423 | 0.7 | 0.75 | -31
Cc1noc(C)c1S(=O)(=O)N1Cc2ccccc2CC1C(=O)N(C)C (stereo unspecified) | 1.1 | 1.4 | 1% | 3.6 | 0.9 | 0.72 | 6
CN(CC(=O)Nc1cccc(F)c1)C(=O)c1ccccc1OCCOc1ccccc1 | 0.2 | 0.6 | 3% | 0.7 | -2.9 | 0.63 | 7
O=C(CCl)NC(Cc1ccccc1)c1ccccc1 (stereo unspecified) | -0.2 | -0.3 | 21% | -0.5 | 0.6 | 0.71 | 0
COC(=O)CC1(C(=O)OC)Oc2ccc(Br)cc2C(=O)N1c1cc(Cl)c(Cl)cc1Cl (stereo unspecified) | 1.0 | -1.0 | 0% | 4.7 | 2.9 | 0.7 | 3
N=c1n(CCN2CCOCC2)c2ccccc2n1CC(=O)c1cccc([N+](=O)[O-])c1 | 0.1 | -2.4 | -1% | 4.0 | -1.2 | 0.66 | -14
CCOC(=O)C1C(=O)NC(SCC(=O)Nc2nccs2)=C(C#N)C1c1ccccc1OCC (stereo unspecified) | 0.2 | -6.4 | 23% | 1.5 | 2.4 | 0.7 | 1
COc1ccc(/C=C\C(=O)NCc2ccc3[nH]c(C)cc3c2)cc1OC | ? | 8.6 | -7% | -1.2 | 1.2 | 0.73 | 17
CCN(CC)CC(O)COCCC12CC3CC(CC(C3)C1)C2 (stereo unspecified) | -0.4 | -5.1 | 3% | 4.5 | -4.4 | 0.64 | 1
CCN(C(=O)C1CSC2(C)CCC(=O)N12)c1nc2c(C)cccc2s1 (stereo unspecified) | 0.1 | 2.9 | . | . | -0.8 | . | 2
CCc1nc(SCc2ccc(OC)c(Br)c2)n[nH]1 | -1.2 | -3.9 | . | 0.7 | 5.7 | 0.67 | -2
CSc1ncccc1C(=O)NCCc1ccccc1F | -0.1 | 4.1 | -9% | -1.9 | -3.8 | 0.66 | 5
CC(=O)Nc1ccc(NC(=O)c2ccc(C3SCC(=O)N3CCc3ccccc3)cc2)cc1 (stereo unspecified) | -1.0 | 2.5 | . | 2.4 | -1.6 | 0.68 | 6
COCCNC(=O)C(c1ccc(C)cc1)N(Cc1ccccc1)C(=O)CCC(=O)Nc1ccccn1 (stereo unspecified) | 0.0 | 3.6 | . | -0.1 | -0.6 | 0.68 | 5
Cc1cc(C)c(-c2c(O)c3cnn(-c4ccccc4)c3[nH]c2=O)c(C)c1 | 0.3 | 3.3 | 2% | 5.1 | -3.9 | 0.67 | 0
Cc1cccc(C(=O)NC2CCN(C(=S)NCc3ccco3)CC2)c1 | 0.0 | -4.4 | 0% | 2.4 | 1.7 | 0.66 | 5
O=C(Nc1cccc2cccnc12)c1ccc2c(c1)OCCO2 | -0.5 | -2.2 | 2% | 2.3 | -1.3 | 0.68 | -8

Complete entries as entered above. Order of values: A1 inh | LANA-H2B inh | Vif TR-FRET | UCH37 inh | HNF4A DNA FP | E coli growth | Beta2AR agonist
Cc1cccc(C(=O)NC2CCN(C(=S)NCc3ccco3)CC2)c1 is listed with 0.0 | -4.4 | 0% | 2.4 | 1.7 | 0.66 | 5
N#Cc1c(N)n(CCNC(=O)c2ccccc2)c2nc3ccccc3nc12 is listed with 0.1 | 1.0 | -7% | -423 | 0.7 | 0.75 | -31
O=C(Nc1cccc2cccnc12)c1ccc2c(c1)OCCO2 is listed with -0.5 | -2.2 | 2% | 2.3 | -1.3 | 0.68 | -8
CCOC(=O)C1(Cc2cccc(OC)c2)CCN(Cc2ccccc2)CC1 is listed with -1.8 | 0.3 | -7% | 1.7 | 1.1 | 0.68 | -2
COc1ccc(/C=C\C(=O)NCc2ccc3[nH]c(C)cc3c2)cc1OC is listed with ? | 8.6 | -7% | -1.2 | 1.2 | 0.73 | 17

(more compounds)
SMILES | A1 inh | LANA-H2B inh | Vif TR-FRET | UCH37 inh | HNF4A DNA FP | E coli growth | Beta2AR agonist
Cc1cccc(NC2=NCC(=O)N2Cc2ccccc2)c1 | -1.5 | 2.3 | 0% | 0.9 | -4.0 | 0.74 | 6
CCn1ccc(C(=O)N2CCOCC2)n1 | -0.7 | 2.2 | -3% | -1.2 | 3.1 | 0.71 | -4
CC(C)Cn1c(CN2CCN(c3ccccc3F)CC2)nc2c1c(=O)[nH]c(=O)n2C | -0.2 | 6.8 | 13% | 6.5 | 2.5 | 0.72 | 1
C/C(=N\NC(=S)NCc1ccccc1)c1ccc(Cl)cc1 | 0.1 | -11 | . | . | 2.3 | . | -11
